TRPV1 PAM = human TRPV1 potentiation; Q8NER1; TRPV1-expressing cells, Fluo-8 calcium influx, capsaicin EC20 potentiation; host cell line not named in the record; control for the full effect not named in the record; potentiation, % at 8.33 µM; 320,000 compounds, 0.02% hits; active means potentiation above 80%; inconclusive means 30% to 80%; inactive means below 30%; further: 0% is about no effect
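Cells expressing TRPV1 were dye-loaded with Fluo-8 and read kinetically: 10 s baseline, 3 min after compound (agonist portion), then 2 min after EC20 capsaicin (allosteric enhancer portion). Calcium-bound dye fluorescence at 480/520 nm.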
Six1-Eya2 inh = Six1/Eya2 interaction inhibition; activity change, % (test concentration not listed); AID 651725; AlphaScreen GST-Six1/His-Eya2 binding, biochemical; active compounds read low; control for the full effect not named in the record; 360,000 compounds, 0.56% hits; Q15475+O00167; in the data active = activity change below about -65%; inconclusive = about -30% to -65%; inactive = above about -30%; further: on the % scale 0 is the no-effect control and ±100 the full control effect
Target sequence (O00167 whole entry, looked up): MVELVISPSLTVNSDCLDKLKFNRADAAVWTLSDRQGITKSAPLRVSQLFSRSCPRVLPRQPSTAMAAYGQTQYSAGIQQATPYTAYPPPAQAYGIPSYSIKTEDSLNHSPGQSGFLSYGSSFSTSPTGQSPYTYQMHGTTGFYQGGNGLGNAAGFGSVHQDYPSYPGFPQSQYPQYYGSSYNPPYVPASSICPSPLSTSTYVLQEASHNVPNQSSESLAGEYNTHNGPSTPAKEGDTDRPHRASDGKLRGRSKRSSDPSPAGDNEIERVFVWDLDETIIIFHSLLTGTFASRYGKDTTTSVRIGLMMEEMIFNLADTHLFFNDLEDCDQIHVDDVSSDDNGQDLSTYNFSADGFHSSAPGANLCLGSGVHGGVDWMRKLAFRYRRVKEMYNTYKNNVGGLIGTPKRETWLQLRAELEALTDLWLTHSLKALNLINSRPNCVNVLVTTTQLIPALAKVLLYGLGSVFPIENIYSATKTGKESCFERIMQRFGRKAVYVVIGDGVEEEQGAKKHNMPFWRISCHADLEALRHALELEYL
Target sequence (Q15475 whole entry, looked up): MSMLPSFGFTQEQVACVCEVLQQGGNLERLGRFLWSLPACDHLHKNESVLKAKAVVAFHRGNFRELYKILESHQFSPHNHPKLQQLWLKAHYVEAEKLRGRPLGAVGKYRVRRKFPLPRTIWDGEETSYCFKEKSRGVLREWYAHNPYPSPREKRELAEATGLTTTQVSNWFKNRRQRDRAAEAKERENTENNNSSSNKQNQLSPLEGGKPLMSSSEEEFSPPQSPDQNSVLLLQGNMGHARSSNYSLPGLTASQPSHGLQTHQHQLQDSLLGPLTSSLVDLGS
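Six1/Eya2 binding was read as AlphaScreen signal after compounds were pinned into GST-Six1 plus His-tagged Eya2 (5X stock 250/500 nM) in pH 8.0 Tris/NaCl/TCEP buffer, beads added, then incubated 1 h, 37 C, dark.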
TRPML1 inh = human mucolipin-1 channel inhibition; Q9GZU1; TRPML1-inducible cells, Ca2+ dye fluorescence, FDSS; active compounds read low; inhibition of EC80 agonist-evoked calcium signal; activity change, negative = inhibition, % (concentration not given with the values); 390,000 compounds, 0.02% hits; AID 624415; in the data active means activity change below about -50%; inconclusive means about -30% to -50%; inactive means above about -30%;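 further: stimulus is agonist 54-4 at its EC80 concentration; on the % scale 0 is the no-effect control and ±100 the full control effect; the text of the record puts the active cut at -80%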
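Calcium fluorescence in TRPML1-DL cells induced overnight with Tet: a 110 s read after compound pin addition, then a 110 s antagonist read after challenge with 54-4 at 4 uM final (EC80).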
CtBP-E1A inh = blocks the CtBP interaction with E1A; AlphaScreen GST-E1A/His-CtBP binding, 1536-well; active compounds read low; control for the full effect not named in the record; activity change, % (no concentration beside the values); 340,000 compounds, 0.49% hits; in the data active means activity change below about -65%; inconclusive means about -30% to -65%; inactive means above about -30%; further: on the % scale 0 is the no-effect control and ±100 the full control effect
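Protein mix (5X: 125 nM each GST-E1A, His-CtBP) was incubated with pinned compound 2 h at 37 deg C in dark, in 50 mM Tris pH 8.0 buffer with 300 mM NaCl. Glutathione donor and nickel acceptor beads followed; AlphaScreen signal read after 1 h.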
TRPML1 agonist = activates the human TRPML1 channel. TRPML1-expressing cells, Ca2+ dye fluorescence, FDSS; host cell line not named in the record; reference of the full effect not given here. activation, % (concentration not given with the values). 410,000 compounds, 0.12% hits; in the data active = activation above about 50%; inconclusive = about 30% to 50%; inactive = below about 30%; further: 0% is about no effect; the text of the record puts the active cut at 80%
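TRPML1-DL cells, Tet-induced overnight (~16 h, 37 degrees C), loaded 45-90 min at room temperature with Ca8 no-wash calcium dye plus quencher. FDSS fluorescence: 10 s baseline, compound pin-transfer, 110 s agonist read, then EC80 54-4 (4uM final) and 110 s antagonist read.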
D2 potentiator = human D2 receptor positive allosteric modulation; DiscoveRx D2 beta-arrestin cells, luminescence, 90 min; 100% = 57 uM dopamine signal; potentiation, % (test concentration not listed); 360,000 compounds, 0.23% hits; P14416; AID 624464; active = potentiation of 50% or more; inconclusive = 30% to 50%; inactive = 30% or less;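 further: compound concentration not given in the record; tested on top of an EC20 dose of dopamine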
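D2 cells co-treated with compound plus 50 nM dopamine (EC20) for 90 min at 37 deg C to detect potentiation. Beta-arrestin recruitment was read as enzyme-fragment luminescence after 1 h at ambient temperature. Full response was set by 57 uM dopamine.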
* = called active by the depositor; ? = inconclusive; · = no result given.

SMILES	TRPV1 PAM	Six1-Eya2 inh	TRPML1 inh	CtBP-E1A inh	TRPML1 agonist	D2 potentiator
Cc1ccc(C)c(N2CCN(S(=O)(=O)c3ccc(-c4cc(C)no4)s3)CC2)c1	-14	0	8	·	1.6	-6
C/C(NC(=O)c1cccs1)=C1\C(=O)C[C@@H]2[C@H]1C2(C)C	-12	11	-12	28	0.9	23
Cn1c(O)c(N=Nc2ccc(F)cc2)c2ccccc21	?	-11	30	-2	2.8	-7
CC(=O)c1sc(NCc2ccc(C)cc2)nc1C	?	-3	-7	-27	3.5	-5
CCOC(=O)c1[nH]c2ccc(OC)cc2c1NC(=O)CN1CCC2(CC1)OCCO2	-13	4	5	5	-0.2	-8
COC(=O)CCC(=O)OC1(C)C(=O)C=C2C=C(C3CC3)N(C3CCCCC3)C=C2C1=O (stereo not given)	?	-1	41	-9	0.3	11
OCC1(CCc2ccccc2)CCN(Cc2c(F)ccc(F)c2F)CC1	4	-2	4	·	0.6	-16
O=C(Cc1ccc(Cl)c(Cl)c1)NNC(=S)NCC1CCCO1 (stereo not given)	-4	1	0	-11	-0.5	-13
CCCn1c(SCC(=O)Nc2cccc(C)n2)nc2c1c(=O)n(C)c(=O)n2C	10	0	-3	·	1.4	3
CCNC(=O)C1(C)CCN1C(=O)Cc1ccc(C(C)C)cc1 (stereo not given)	·	9	·	5	-0.2	0
COC(=O)CC(c1ccc(OC)c(OC)c1)c1ccc(OC)c(OC)c1	-7	5	-3	7	-0.4	1
Cn1c(=O)[nH]c(=O)c2c1nc(SCC(N)=O)n2Cc1cccc(Br)c1	20	0	-3	-4	1.1	-2
S=c1nc(-c2ccc(Br)cc2)oc2c1CCCC2	4	3	6	6	0.6	-14
Cn1c(C(=O)NC2CCCCC2)cc2c(=O)n3ccccc3nc21	-18	2	12	·	0.4	-4
O=C(NCc1ccco1)c1ccc(-c2cccc(Cl)c2)o1	-10	-2	-1	13	1.4	0
O=C(CCCCCN1C(=O)CCC1=O)Nc1ccc2c(c1)OCCO2	14	1	-2	2	-0.8	-11
O=C(NC1CCCCC1)C(c1ccccc1F)N(C(=O)c1csnn1)C1CCCC1 (stereo not given)	-8	-4	-5	5	2.1	-4
CCC1CCCCN1C(=O)c1ccc(OC2CCN(C(=O)COC)CC2)cc1 (stereo not given)	17	-6	13	-5	0.6	-6
CCc1nc2ccc(C(=O)NCc3ccccc3OC)cn2c1N(C)Cc1ccc(N(C)C)cc1	·	?	15	?	-0.4	8
O=C(Nc1ccc(F)cc1)Nc1cc(S(=O)(=O)N2CCOCC2)ccc1N1CCCC1	11	2	10	9	-0.3	-1
O=C(CNC1CCCC1)Nc1cc(Cl)ccc1[N+](=O)[O-]	10	-21	-2	-17	1.2	1
O=C(CN1C(=O)/C(=C/c2ccccc2F)Oc2ccccc21)N1CCN(c2ccccn2)CC1	?	5	11	0	-0.1	-2
Cc1cc(C)c2c(c1)/C(=N/NS(=O)(=O)c1ccc(Br)cc1)CCC2	8	3	-5	6	-0.3	0
CCSc1nnc(-c2cnn(-c3ccccc3)c2-n2cccc2)n1C	1	-2	9	-6	-0.6	-8
Cc1ccc(NC(=O)c2sc3nc(N4CCOCC4)c4c(c3c2N)CCCC4)cc1	·	-18	-16	-5	-0.1	-15

(continued)
SMILES	TRPV1 PAM	Six1-Eya2 inh	TRPML1 inh	CtBP-E1A inh	TRPML1 agonist	D2 potentiator
COc1ccccc1CC(=O)OC(C)C(=O)Nc1ccc(S(=O)(=O)N2CCCCC2)cc1 (stereo not given)	-19	3	15	-3	2.7	1
C=Cc1ccc(C(=O)N2CCCC(CCC(=O)N3CCN(c4ccccn4)CC3)C2)cc1 (stereo not given)	8	-12	-4	-18	-0.4	-30
CC1(C)C[C@H](O)[C@@]23C[C@@H](OC2=O)[C@]2(C)C(=CCC4[C@@]5(C)CC[C@H](O)C(C)(C)C5CC[C@]42C)[C@@H]3C1 (stereo not given in full)	·	8	46	2	9.1	-2
CCNC(=S)NNC(=O)c1cc(-c2cccc(OCC)c2)nc2ccccc12	?	-10	-6	6	0.7	-24
Cc1ccc(-c2noc(CN(C)C(=O)c3ccoc3C)n2)cc1	-9	-14	16	-7	2.6	-2
CCc1ccc(NS(=O)(=O)c2cccc3nsnc23)cc1	-19	1	-18	-10	2.4	-8
CCOc1ccc(C(=O)NCC(=O)OCc2cc([N+](=O)[O-])cc3c2OCOC3)cc1OCC	-1	-3	3	1	2.7	-1
O=C(Cc1ccccc1)NN=Cc1ccccc1	·	0	-2	8	1.3	-15
CC(=O)NC(CCS(C)(=O)=O)C(=O)Nc1cc(Cl)ccc1Cl (stereo not given)	9	5	-1	8	-0.3	-4
CCCCn1c(N)c(N(C)C(=O)c2ccc(OCC3CCCO3)cc2)c(=O)[nH]c1=O (stereo not given)	7	10	21	-7	1.3	-3
COc1ccc(OC)c(N(CC(=O)NCCSCc2ccco2)S(=O)(=O)c2ccccc2)c1	0	-13	-1	-5	0.8	3
CCn1nc(C)c(/C=N/NC(=O)c2ccoc2C)c1C	29	4	-7	4	0.0	-5
Cc1cc(-c2onc(C)c2C(N)=O)no1	5	5	14	3	0.6	-5
CC(=O)c1c(C)[nH]c(C(=O)OCC(=O)c2ccc(Br)cc2)c1C	·	-22	8	-2	-1.4	-2
C=C(C)c1ccc(C(C)(C)NC(=O)NCc2ccco2)cc1	2	7	38	-9	1.2	-4
O=C(CCNS(=O)(=O)c1cccc(C(F)(F)F)c1)NCc1ccco1	·	-1	22	·	-1.3	-9
COc1ccc(S(=O)(=O)NCC2CCCN(C(=O)c3cccnc3)C2)cc1 (stereo not given)	-1	3	-7	1	-0.3	-5
Cc1ccccc1-n1c(SCC(=O)c2c(N)n(C)c(=O)n(C)c2=O)nnc1-c1cccnc1	30	1	8	-5	-0.3	-5
CCc1ccc(-n2c(SCC(=O)NC3CCS(=O)(=O)C3)nc3ccccc3c2=O)cc1 (stereo not given)	-8	3	7	1	3.8	-4
COc1ccc(NC(=O)CCn2cc(C)c3ccccc32)cc1	12	-15	17	1	-0.4	-13
COc1ccc(NC(=O)COC(=O)c2c(-c3ccccc3)noc2C)cc1	-9	0	50	-2	-0.5	-7
O=c1[nH][nH]c(-c2ccccc2)c1C=Nc1ccc(Cl)cc1	21	-13	30	-5	0.3	-39
Cc1cccc(NC(=O)CSc2nc3nc(C)cc(C)c3c(=O)[nH]2)c1	19	-3	-3	7	1.8	11
O=C(CN1C(=O)C(=O)N(C2CCCC2)C1=O)Nc1ccc(F)cc1F	-6	7	-8	6	-0.5	-1
COC(=O)c1cc(NC(=O)c2cccc([N+](=O)[O-])c2C)ccc1Cl	13	0	3	-26	2.6	-6

(cont.)
SMILES	TRPV1 PAM	Six1-Eya2 inh	TRPML1 inh	CtBP-E1A inh	TRPML1 agonist	D2 potentiator
Cc1ccc(C(=O)NCC(=O)OCC(=O)c2ccccc2)s1	-2	7	19	0	0.1	-5
O=C(/C=N/O)NCCN1CCCCC1	29	2	0	2	0.8	-18
O=C(NC1CCCC(C(F)(F)F)C1)c1ccc([N+](=O)[O-])o1 (stereo not given)	·	20	-2	25	1.2	4
Cc1c(CC(=O)NCC(=O)NCC(=O)O)c(=O)oc2cc3oc4c(c3cc12)CCCC4	-1	-4	-20	-3	-0.5	1
CCc1ccc(Nc2cnn(-c3nc4ccccc4s3)c(=O)c2Cl)cc1	1	-9	-4	2	-0.7	1
CCc1ccc2c(c1)cc(CN(C(=S)Nc1cccc(C)c1)C1CC1)c1nnnn12	6	0	0	1	-0.3	-3
Cc1cccc(OCCCC(=O)Nc2ccc(N3CCCCC3)cc2)c1C	-2	-4	-3	?	-0.2	-10
COc1cccc(C(=O)OCC(=O)N2CCc3ccccc3C2)c1	·	10	-8	4	1.2	-9
O=C(NCc1cccnc1)c1ccc(S(=O)(=O)N2CCCCC2)cc1	-7	2	-13	2	-0.3	-4
Cc1ccc(S(=O)(=O)Nc2ccc(NC(=O)c3cccnc3)cc2)cc1	2	1	-12	1	1.8	-4
O=C(Nc1cccc(Cl)c1)c1nc[nH]c1C(=O)Nc1ccccc1F	·	-4	-6	-3	-0.3	-8
COc1ccc(N(CC(=O)Nc2ccc3c(c2)OCO3)S(=O)(=O)c2ccc(C)cc2)cc1OC	-3	-5	2	-23	2.3	-12

20 consecutive entries already listed:
SMILES	TRPV1 PAM	Six1-Eya2 inh	TRPML1 inh	CtBP-E1A inh	TRPML1 agonist	D2 potentiator
Cc1ccccc1-n1c(SCC(=O)c2c(N)n(C)c(=O)n(C)c2=O)nnc1-c1cccnc1	30	1	8	-5	-0.3	-5
CCc1ccc(-n2c(SCC(=O)NC3CCS(=O)(=O)C3)nc3ccccc3c2=O)cc1 (stereo not given)	-8	3	7	1	3.8	-4
COc1ccc(NC(=O)CCn2cc(C)c3ccccc32)cc1	12	-15	17	1	-0.4	-13
COc1ccc(NC(=O)COC(=O)c2c(-c3ccccc3)noc2C)cc1	-9	0	50	-2	-0.5	-7
O=c1[nH][nH]c(-c2ccccc2)c1C=Nc1ccc(Cl)cc1	21	-13	30	-5	0.3	-39
Cc1cccc(NC(=O)CSc2nc3nc(C)cc(C)c3c(=O)[nH]2)c1	19	-3	-3	7	1.8	11
O=C(CN1C(=O)C(=O)N(C2CCCC2)C1=O)Nc1ccc(F)cc1F	-6	7	-8	6	-0.5	-1
COC(=O)c1cc(NC(=O)c2cccc([N+](=O)[O-])c2C)ccc1Cl	13	0	3	-26	2.6	-6
Cc1ccc(C(=O)NCC(=O)OCC(=O)c2ccccc2)s1	-2	7	19	0	0.1	-5
O=C(/C=N/O)NCCN1CCCCC1	29	2	0	2	0.8	-18
O=C(NC1CCCC(C(F)(F)F)C1)c1ccc([N+](=O)[O-])o1 (stereo not given)	·	20	-2	25	1.2	4
Cc1c(CC(=O)NCC(=O)NCC(=O)O)c(=O)oc2cc3oc4c(c3cc12)CCCC4	-1	-4	-20	-3	-0.5	1
CCc1ccc(Nc2cnn(-c3nc4ccccc4s3)c(=O)c2Cl)cc1	1	-9	-4	2	-0.7	1
CCc1ccc2c(c1)cc(CN(C(=S)Nc1cccc(C)c1)C1CC1)c1nnnn12	6	0	0	1	-0.3	-3
Cc1cccc(OCCCC(=O)Nc2ccc(N3CCCCC3)cc2)c1C	-2	-4	-3	?	-0.2	-10
COc1cccc(C(=O)OCC(=O)N2CCc3ccccc3C2)c1	·	10	-8	4	1.2	-9
O=C(NCc1cccnc1)c1ccc(S(=O)(=O)N2CCCCC2)cc1	-7	2	-13	2	-0.3	-4
Cc1ccc(S(=O)(=O)Nc2ccc(NC(=O)c3cccnc3)cc2)cc1	2	1	-12	1	1.8	-4
O=C(Nc1cccc(Cl)c1)c1nc[nH]c1C(=O)Nc1ccccc1F	·	-4	-6	-3	-0.3	-8
COc1ccc(N(CC(=O)Nc2ccc3c(c2)OCO3)S(=O)(=O)c2ccc(C)cc2)cc1OC	-3	-5	2	-23	2.3	-12

Bioassay records deposited in PubChem by National Center for Advancing Translational Sciences (NCATS).
